Ecoli rRNA inh – inhibits bacterial ribosomal RNA function over humanized ribosomes; E. coli WT GFP vs humanized-ribosome RFP mutants, fluorescence, 24 h; hits give low values; DMSO median 0, no signal -100; GFP signal change (wild-type ribosome), % (test concentration not listed); actives 1.6% (n = 350,000);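 active = significant combined selectivity score with lowered wild-type GFP, culture density cut under 30%, mutant RFP and density less affected; inactive = any of these conditions unmet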; also: one replicate is shown; some compounds called inactive have numbers as strong as hits
ALR inh – inhibitors of human sulfhydryl oxidase ALR | P55789 | purified ALR, DTT oxidation, H2O2 HRP-luminol luminescence | inhibition, % (no concentration beside the values) | actives 3.8% (n = 290,000) | AID 485317;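 active = mean and each replicate at 75% or more; inconclusive = only one of the two met; inactive = neither met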;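 also: stock transfer was 7.5 nL into about 7.5 µL; 0% = neutral wells and 100% = wells with inactivated enzyme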
Target sequence (P55789 whole entry, looked up): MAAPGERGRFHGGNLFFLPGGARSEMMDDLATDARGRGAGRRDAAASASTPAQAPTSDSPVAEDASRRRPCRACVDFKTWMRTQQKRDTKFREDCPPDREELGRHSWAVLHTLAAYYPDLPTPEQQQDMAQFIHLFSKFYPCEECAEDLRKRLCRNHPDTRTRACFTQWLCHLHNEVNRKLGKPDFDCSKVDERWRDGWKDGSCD
Vif A3G – HIV-1 Vif–A3G interaction blockers – biochemical, TR-FRET, GST-Vif 1-94, biotin-A3G peptide, dose response retest, primary screen (AID 1117319). TR-FRET GST-Vif / biotin-A3G peptide binding; higher % means a stronger effect; test concentration not given here; strong numbers were not always called active. inhibition, %; hits with a dose series show IC50 in µM. actives 0.57% (n = 260,000);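 active = above the screen mean plus three standard deviations and confirmed in dose response; inconclusive = results disagree or hit not tested in dose response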;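 also: Vif residues 1-94 fused to GST binding biotinylated APOBEC3G peptide 110-148; 0% = full assay without inhibitor and 100% = GST in place of GST-Vif; retest series ran down from 100 µM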
HNF4A DNA FP – change in binding of human HNF4 alpha to DNA | AID 1224865 | actives 0.3% (n = 360,000) | activity change, % at 10 µM | HNF4a-FITC DNA binding, fluorescence polarization, 1 h; in the data active = activity change above about 30%, passing the limit was not always enough;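 also: controls were the assay level and a saturating level of protein; the project sought stronger binding though the title names inhibitors; some compounds called inactive have numbers as strong as hits; positive values seem to mean higher polarization but the record does not say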
E coli growth – E. coli growth inhibition | Escherichia coli growth, OD600, 23 h; hits give low values | OD600 absorbance (no concentration beside the values) | actives 0.21% (n = 330,000) | AID 1053175;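 active = OD600 absorbance below the run mean of sample wells minus 3.6 SD, in any replicate, cut at about 0.56 in these data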;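 also: stock transfer was 300 nL into about 60 µL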
MLL AF4-AF9 inh – MLL-AF4/AF9 protein interaction inhibition; inhibition, % at 10 µM; AID 651704; actives 0.47% (n = 350,000); AlphaScreen, biotin-AF4 peptide binding to FLAG-AF9;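 active = every replicate reaching a set inhibition limit, whatever the replicate mean, cut at about 25% in these data; inconclusive = mean inhibition reaches that limit but some replicates miss it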;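 also: 0% = plate neutral control median and 100% = total signal loss; the record names both 10 and 1 µM as test concentration; the first replicate is given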
Target sequence (P42568 whole entry, looked up): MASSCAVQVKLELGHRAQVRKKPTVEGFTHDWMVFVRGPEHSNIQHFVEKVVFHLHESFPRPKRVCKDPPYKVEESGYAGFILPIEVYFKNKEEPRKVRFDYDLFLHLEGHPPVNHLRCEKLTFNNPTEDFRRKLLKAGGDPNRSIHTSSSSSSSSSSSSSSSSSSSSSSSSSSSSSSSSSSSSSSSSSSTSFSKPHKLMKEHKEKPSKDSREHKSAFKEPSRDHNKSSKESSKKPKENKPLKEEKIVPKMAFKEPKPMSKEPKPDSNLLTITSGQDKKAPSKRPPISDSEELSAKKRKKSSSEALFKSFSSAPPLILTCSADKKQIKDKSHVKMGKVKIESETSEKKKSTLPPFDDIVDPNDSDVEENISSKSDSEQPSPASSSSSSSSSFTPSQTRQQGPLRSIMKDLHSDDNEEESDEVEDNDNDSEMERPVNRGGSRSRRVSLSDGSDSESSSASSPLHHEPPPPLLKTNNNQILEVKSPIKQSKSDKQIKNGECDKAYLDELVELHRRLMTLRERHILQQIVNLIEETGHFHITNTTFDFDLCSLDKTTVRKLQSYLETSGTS
FGF22 binding – binders of recombinant human FGF22 by thermal shift. Q9HCT0. SYPRO orange fluorescence; percent of sucrose octasulfate shift, DMSO zero. calls only at 9.99 µM. actives 1.5% (n = 340,000). AID 651658;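 active = melting point raised past a set limit in the mean and every replicate; inconclusive = no clear call; three in four hits are not shown here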
Target sequence (Q9HCT0 whole entry, looked up): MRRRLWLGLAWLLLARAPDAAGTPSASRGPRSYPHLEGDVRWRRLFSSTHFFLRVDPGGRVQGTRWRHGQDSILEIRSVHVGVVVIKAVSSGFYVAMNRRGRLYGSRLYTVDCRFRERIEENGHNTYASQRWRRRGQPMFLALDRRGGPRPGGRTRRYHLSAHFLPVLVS
Ecoli rRNA inh OD600 – further read-out of Ecoli rRNA inh, marked with its call; OD600 change, %; measured here: OD600 growth;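 optical density of the mix in the first replicate; 0 = DMSO median and -100 = no signal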
Ecoli rRNA inh RFP – recorded beside Ecoli rRNA inh, whose call it bears; RFP signal change, %; measured here: RFP humanized mutant strains;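 first replicate; 0 = DMSO median and -100 = no signal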
Numbers without * were called inactive; i = inactive; ? = inconclusive; nt = no result given. These rows are one share of the data. The share of hits here may be higher or lower than overall.

SMILES | Ecoli rRNA inh | Ecoli rRNA inh OD600 | Ecoli rRNA inh RFP | ALR inh | Vif A3G | HNF4A DNA FP | E coli growth | MLL AF4-AF9 inh | FGF22 binding
Cc1csc(=O)n1CCC(=O)OCC(=O)Nc1ccc(N2CCOCC2)cc1 | 9.0 | 29.7 | 2.6 | nt | nt | 5.0 | nt | -2.3 | i
Cc1ccc2cc(C)c(SCC#N)nc2c1 | nt | nt | nt | -1.7 | -8.4% | 0.2 | 0.693 | nt | nt
CN(C)CCCNC(=O)C[C@H]1CC[C@H]2[C@@H](COc3ccc(NC(=O)NC4CCCC4)cc3C(=O)N2C)O1 | -2.1 | -6.8 | -0.5 | nt | nt | nt | nt | -0.8 | i
O=C(CCCC1=NS(=O)(=O)c2ccccc2N1)Nc1ccccc1 | 4.4 | 6.9 | -1.6 | -5.0 | nt | -0.8 | 0.693 | -5.2 | i
CCC(C)(C)c1ccc(OCC(=O)Nc2ccncc2)cc1 | -36.7 | -68.2 | -9.3 | -10.6 | nt | 1.8 | 0.64 | 3.3 | i
Nc1ncc(Br)cc1N=Cc1ccccc1 | 32.5 | 15.9 | 1.1 | 54.4 | 31.4% | -0.9 | nt | -4.8 | i
O=C(c1cccs1)N1CCN(CCc2ccccc2)CC1 | nt | nt | nt | -10.7 | -0.5% | 4.0 | 0.654 | nt | nt
O=C(CSc1nnc2ccc(-c3cccnc3)nn12)Nc1cccc(F)c1 | 16.6 | 5.0 | 2.7 | nt | 6.1% | 0.0 | 0.701 | -1.1 | i
COc1ccc2cc3cc(C(=O)NCc4cccs4)oc3nc2c1 | nt | nt | nt | nt | -16.9% | -2.6 | 0.693 | nt | nt
O=C(NCc1ccncc1)c1ccc2nc([C@@H]3O[C@H](CO)[C@H](O)[C@H](O)[C@H]3O)[nH]c2c1 | 18.5 | 17.4 | -1.1 | nt | nt | 1.8 | nt | -3.4 | i
Cc1ccc(NC2c3ncccc3C(=O)N2C2CCCCC2)cc1 (stereo not drawn) | nt | nt | nt | 96.0* | 5.7% | 1.4 | 0.708 | nt | nt
O=C(CNC(=O)c1ccc(F)cc1)N/N=C/c1ccc(O)c([N+](=O)[O-])c1 | 0.2 | -8.8 | -4.0 | -3.2 | 19.6% | -3.9 | nt | 1.2 | i
Cc1ccc(NC(=O)COC(=O)CN2C(=O)c3ccccc3C2=O)cc1S(=O)(=O)N(C)C | 0.0 | 1.7 | -1.1 | nt | nt | -3.0 | 0.683 | 2.6 | i
CCOC(=O)c1cnc2ccc(OC)cc2c1Nc1ccc2c(c1)OCCO2 | nt | nt | nt | -5.2 | 28.3% | 1.6 | 0.68 | nt | nt
Cn1c(CSCc2ccc(F)cc2)nnc1SCC(=O)Nc1nccs1 | nt | nt | nt | -8.4 | 19.1% | 0.8 | 0.663 | nt | nt
O=C(CN1C(=O)c2cccnc2Oc2ccc(Cl)cc21)N1CCOCC1 | 3.4 | 15.8 | 1.5 | -15.0 | 7.1% | 0.1 | 0.662 | -3.7 | i
NC(=O)[C@@H]1CCCN1C(=O)c1ccc2oc(CCc3ccccc3)nc2c1 | 6.7 | 10.9 | -0.8 | -8.8 | nt | 1.4 | 0.722 | -2.4 | i
C[C@@H]1CCCCO[C@@H](CN(C)C(=O)NC2CCCCC2)[C@H](C)CN([C@@H](C)CO)C(=O)c2cc(NC(=O)CCC(F)(F)F)ccc2O1 | 1.3 | -0.6 | 0.9 | nt | nt | nt | nt | -1.0 | i
O=C1/C(=C/c2ccc3c(c2)OCO3)Oc2cc(OCC(=O)N3CC(O)C[C@H]3C(=O)O)ccc21 (stereo partly drawn) | nt | nt | nt | 3.2 | nt | 6.4 | 0.669 | nt | nt
COc1cccc(NC(=O)c2ccc(S(=O)(=O)NCc3cccnc3)cc2)c1 | -4.2 | -6.1 | 0.2 | -0.2 | ? | 1.8 | 0.694 | 4.6 | i

As entered above.
In Vif A3G, O=C(CN1C(=O)c2cccnc2Oc2ccc(Cl)cc21)N1CCOCC1 has the entry 7.1%
In Vif A3G, Cc1ccc(NC2c3ncccc3C(=O)N2C2CCCCC2)cc1 (stereo not drawn) has the entry 5.7%
In Ecoli rRNA inh RFP, COc1cccc(NC(=O)c2ccc(S(=O)(=O)NCc3cccnc3)cc2)c1 has the entry 0.2

The main list resumes, repeating the 2 entries before the break.
SMILES | Ecoli rRNA inh | Ecoli rRNA inh OD600 | Ecoli rRNA inh RFP | ALR inh | Vif A3G | HNF4A DNA FP | E coli growth | MLL AF4-AF9 inh | FGF22 binding
O=C1/C(=C/c2ccc3c(c2)OCO3)Oc2cc(OCC(=O)N3CC(O)C[C@H]3C(=O)O)ccc21 (stereo partly drawn) | nt | nt | nt | 3.2 | nt | 6.4 | 0.669 | nt | nt
COc1cccc(NC(=O)c2ccc(S(=O)(=O)NCc3cccnc3)cc2)c1 | -4.2 | -6.1 | 0.2 | -0.2 | ? | 1.8 | 0.694 | 4.6 | i
COc1ccc2ccn(S(=O)(=O)c3ccccc3)c2c1 | 3.0 | 0.3 | -1.4 | nt | nt | 3.5 | 0.664 | 1.0 | i
COC(=O)c1[nH]c2ccc(C)cc2c1NC(=O)CN1CCCC(C)(C)C1 | -49.4 | -79.2 | -12.1 | -0.8 | 6.0% | 0.1 | 0.695 | nt | nt
CCOc1ccc(NC(=S)NCCN2CCN(Cc3ccccc3)CC2)cc1 | 0.7 | -5.8 | -3.5 | nt | -0.4% | -2.1 | 0.693 | 12.8 | i
CCc1c(C)sc(NC(=S)N2CCN(S(C)(=O)=O)CC2)c1C(=O)OC | 3.0 | 4.0 | -3.1 | 6.9 | 2.7% | -1.5 | 0.722 | -4.4 | i
Cc1ccccc1S(=O)(=O)N1CC[C@@H]2[C@H](CO)Nc3ccc(-c4ccc(C#N)cc4)cc3[C@@H]21 | -20.8 | -35.0 | -4.2 | nt | nt | nt | nt | -7.0 | i
CCOc1ccc(-c2cccc(NS(=O)(=O)c3cc([N+](=O)[O-])ccc3C)c2)nn1 | -7.6 | -7.8 | -1.6 | -3.8 | -4.0% | 2.4 | 0.664 | -0.3 | i
CC(C)(C)OC(=O)N/N=C/c1c[nH]c2ccccc12 | -1.3 | 0.4 | -3.3 | 51.0 | nt | -1.1 | nt | 3.4 | i
C[C@H](CO)N1C[C@H](C)[C@H](CN(C)S(=O)(=O)c2ccc(Cl)cc2)Oc2c(NS(=O)(=O)c3ccc(Cl)cc3)cccc2C1=O | -0.8 | 5.2 | 2.2 | nt | nt | nt | nt | 1.4 | i
O=C(CSc1nc(=O)n2cc(Cl)ccc2n1)Nc1cccc2ccccc12 | -1.7 | -5.3 | 2.4 | nt | 5.4% | 8.9 | 0.705 | -0.3 | i
CC1(C)CC(=O)c2ccc(OCc3ccc([N+](=O)[O-])cc3)cc2O1 | 8.3 | 14.0 | -0.8 | 3.7 | -6.8% | 3.1 | 0.689 | -1.3 | i
COc1ccc(CNC(=O)c2noc3c2CCCC3)cc1 | nt | nt | nt | -4.5 | 0.7% | -0.9 | 0.663 | nt | nt
O=C(Nc1ccncc1)c1ccc(Cl)c(Cl)c1 | -23.4 | -21.4 | -5.8 | 3.9 | 1.1% | -2.2 | 0.63 | 1.0 | i
COc1ccc(C(=O)n2nc(-c3ccco3)nc2N)cc1 | nt | nt | nt | -1.6 | 3.9% | -2.4 | 0.737 | nt | nt
CCOC(=O)N1CCN(C(=O)c2cc3cc(C)ccc3[nH]2)CC1 | 4.5 | 6.3 | 3.3 | -5.3 | nt | 2.6 | 0.691 | 0.4 | i
COc1ccc(S(=O)(=O)N2CC(C(=O)O)Oc3ccc(CC(=O)O)cc32)cc1 (stereo not drawn) | nt | nt | nt | -25.1 | 0.9% | -4.2 | 0.681 | nt | nt
Cc1ccc(C(=O)N2CCN(c3ncccn3)CC2)cc1NC1=NC2CS(=O)(=O)CC2S1 (stereo not drawn) | 3.9 | 7.9 | 1.8 | -3.2 | nt | 0.9 | 0.696 | -11.1 | i
Cc1c(C(=O)NCc2ccccn2)oc2ccc(S(=O)(=O)N3CCOCC3)cc12 | nt | nt | nt | -16.3 | 0.5% | 2.3 | 0.704 | nt | nt
COC(=O)c1sccc1NC(=O)Nc1ccc(OC)cc1OC | 0.7 | 5.5 | -2.0 | -5.7 | -7.6% | -0.7 | 0.677 | -3.6 | i
CCC(=O)NCC(c1ccco1)N1CCN(c2ccc(OC)cc2)CC1 (stereo not drawn) | 11.6 | 2.4 | -0.2 | ? | 2.5% | -5.2 | 0.722 | -2.8 | i
Cc1sc(NC(=O)c2ccco2)c(C(c2cccnc2)N2CCC(C)CC2)c1C (stereo not drawn) | nt | nt | nt | nt | -1.9% | -3.4 | 0.731 | nt | nt
Cc1ccc(C)c(NC(=O)CSc2n[nH]c(-c3ccccn3)n2)c1 | -49.5 | -71.5 | -21.7 | nt | nt | -1.7 | 0.668 | -0.1 | i
CCOc1ccccc1C(=O)NCC(=O)N(C)CC(=O)Nc1ccc(N2CCOCC2)cc1 | 10.0 | 14.7 | 0.9 | nt | nt | -0.6 | nt | 0.6 | i
CCCc1ccc(OCC(=O)O)cc1 | nt | nt | nt | 0.7 | 4.8% | -0.2 | 0.703 | nt | nt
CC(C)C(=O)Nc1ccc(C(=O)NNC(=O)CCc2ccccc2)cc1 | 4.1 | 14.9 | -2.0 | -5.1 | -2.8% | 1.4 | 0.708 | 2.8 | i
Cn1nccc1C(=O)OCC(=O)Nc1ccccc1 | 6.5 | 4.6 | -2.4 | nt | nt | 0.3 | 0.675 | -1.3 | i
CC(C)Cc1nnc(NC(=O)CCc2c[nH]c3ccccc23)s1 | -14.9 | -29.5 | -4.1 | 2.4 | 8.8% | 1.8 | 0.704 | 0.2 | i
C[C@@H]1CN([C@H](C)CO)C(=O)c2cc(N(C)C)ccc2O[C@@H]1CN(C)Cc1ccc(Cl)c(Cl)c1 | -5.7 | -13.1 | 1.4 | nt | nt | nt | nt | 27.9* | i
COc1cccc(C2(O)CCN(C(=O)c3cccs3)CC2)c1 | nt | nt | nt | -4.1 | 1.8% | 2.0 | 0.687 | nt | nt
CCCC#Cc1cnc2c(c1)C(=O)N([C@@H](C)CO)C[C@@H](C)[C@@H](CN(C)C(=O)Cc1cccnc1)O2 | 5.6 | 9.4 | -1.0 | nt | nt | nt | nt | -5.0 | i
C=CCOC(=O)CCCCCCCC | 5.8 | 6.5 | -0.6 | -8.8 | nt | 2.6 | 0.681 | nt | i
CC1(C)CC(=O)C=C(Nc2ccc(Cl)c(Br)c2)C1 | -2.7 | 3.5 | -0.2 | nt | nt | 1.2 | 0.662 | -9.7 | i
CN(C)c1ccc(-c2ccnc3c2CC(C)(C(=O)NCc2ccc(F)c(F)c2)O3)cc1 (stereo not drawn) | -8.2 | -9.5 | -5.5 | nt | nt | 3.1 | nt | 5.4 | i
COC(=O)c1ccc(Nc2ccc3nonc3c2[N+](=O)[O-])cc1 | 6.6 | 8.0 | 3.4 | nt | -3.9% | -1.7 | 0.677 | -1.6 | i
CCC(=O)N1CCCCN2[C@H](CO)[C@@H](c3ccc(C#Cc4cccnc4)cc3)[C@H]2C1 | -3.7 | 3.9 | -3.0 | nt | nt | nt | nt | 6.7 | i
O=[N+]([O-])c1ccccc1/C=C/CN1CCSCC1 | 5.2 | 2.7 | 1.8 | -8.2 | -2.4% | -0.6 | 0.649 | -11.1 | i
CC(=O)c1c(C)[nH]c(C(=O)OCCOc2ccccc2)c1C | 4.3 | 4.8 | 4.7 | 4.6 | 3.8% | 1.6 | 0.739 | -2.4 | i
COCCn1c(SCC(=O)c2c(-c3ccccc3)n(C)c3ccccc23)nnc1-c1ccncc1 | nt | nt | nt | nt | -5.5% | -3.5 | 0.683 | nt | nt

Screening results: PubChem BioAssay, several laboratories
